TRPML1 blocker – blocks the human TRPML1 channel; AID 624415; activity change, negative = inhibition, % (no concentration beside the values); Q9GZU1; TRPML1-inducible cells, Ca2+ dye fluorescence, FDSS; stronger effect = lower value; inhibition of EC80 agonist-evoked calcium signal; 390,000 compounds, 0.02% hits; in the data active means activity change below about -50%; inconclusive means about -30% to -50%; inactive means above about -30%;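 note: stimulus is agonist 54-4 at its EC80 concentration; % is set by controls: 0 for no effect and ±100 for the full control effect; compound concentration not given in the record; the text of the record puts the active cut at -80%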
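Calcium fluorescence in TRPML1-DL cells induced overnight with Tet: a 110 s read after compound pin addition, then a 110 s antagonist read after challenge with 54-4 at 4 uM final (EC80).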
CtBP-E1A blk – blocks the CtBP interaction with E1A | AlphaScreen GST-E1A/His-CtBP binding, 1536-well; stronger effect = lower value; control for the full effect not named in the record | activity change, % (concentration not given with the values) | 340,000 compounds, 0.49% hits; in the data active means activity change below about -65%; inconclusive means about -30% to -65%; inactive means above about -30%; note: % is set by controls: 0 for no effect and ±100 for the full control effect
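GST-E1A and His-tagged CtBP (125 nM each as 5X stock) were preincubated with pin-transferred compound for 2 h at 37 °C in the dark, then glutathione donor and nickel acceptor beads were added for 1 h before AlphaScreen reading.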
Six1-Eya2 inh – inhibitors of human Six1/Eya2 interaction; Q15475+O00167; AlphaScreen GST-Six1/His-Eya2 binding, biochemical; stronger effect = lower value; control for the full effect not named in the record; activity change, % (concentration not given with the values); 360,000 compounds, 0.56% hits; AID 651725; in the data active = activity change below about -65%; inconclusive = about -30% to -65%; inactive = above about -30%; note: % is set by controls: 0 for no effect and ±100 for the full control effect
Target sequence (O00167 whole entry, looked up): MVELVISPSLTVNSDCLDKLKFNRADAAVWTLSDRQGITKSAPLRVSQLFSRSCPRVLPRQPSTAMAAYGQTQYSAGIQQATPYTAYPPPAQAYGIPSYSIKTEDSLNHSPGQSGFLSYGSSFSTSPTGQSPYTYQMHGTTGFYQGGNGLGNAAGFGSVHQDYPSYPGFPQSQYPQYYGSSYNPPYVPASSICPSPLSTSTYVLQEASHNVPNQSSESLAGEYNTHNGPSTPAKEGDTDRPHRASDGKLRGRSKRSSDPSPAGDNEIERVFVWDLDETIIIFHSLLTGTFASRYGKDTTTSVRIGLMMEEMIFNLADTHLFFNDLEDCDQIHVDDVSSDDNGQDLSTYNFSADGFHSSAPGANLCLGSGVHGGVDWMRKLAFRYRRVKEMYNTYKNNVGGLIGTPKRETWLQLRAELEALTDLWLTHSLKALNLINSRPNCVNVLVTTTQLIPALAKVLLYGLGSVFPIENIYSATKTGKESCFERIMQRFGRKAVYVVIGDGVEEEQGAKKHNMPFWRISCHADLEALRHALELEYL
Target sequence (Q15475 whole entry, looked up): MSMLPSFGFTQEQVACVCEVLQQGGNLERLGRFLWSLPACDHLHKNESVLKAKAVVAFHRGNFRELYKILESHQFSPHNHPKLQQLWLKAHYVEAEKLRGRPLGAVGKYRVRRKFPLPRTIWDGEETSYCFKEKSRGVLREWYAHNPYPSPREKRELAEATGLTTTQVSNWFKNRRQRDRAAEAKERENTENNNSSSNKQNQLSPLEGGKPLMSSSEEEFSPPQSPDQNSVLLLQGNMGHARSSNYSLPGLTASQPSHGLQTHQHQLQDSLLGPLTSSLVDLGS
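Homogeneous AlphaScreen proximity assay pairing GST-Six1 with His-tagged Eya2 (added as 5X mix: 250 nM and 500 nM) in 50 mM Tris pH 8.0, 300 mM NaCl, 1 mM TCEP. Glutathione donor and nickel acceptor beads; 1 h, 37 °C, dark.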
TRPV1 potentiator – human TRPV1 potentiation | potentiation, % at 8.33 µM | AID 540277 | Q8NER1 | TRPV1-expressing cells, Fluo-8 calcium influx, capsaicin EC20 potentiation; host cell line not named in the record; control for the full effect not named in the record | 320,000 compounds, 0.02% hits; active means potentiation above 80%; inconclusive means 30% to 80%; inactive means below 30%; note: 0% is about no effect
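Cells expressing TRPV1 were dye-loaded with Fluo-8 and read kinetically: 10 s baseline, 3 min after compound (agonist portion), then 2 min after EC20 capsaicin (allosteric enhancer portion). Calcium-bound dye fluorescence at 480/520 nm.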
D2 potentiator – potentiates the human D2 dopamine receptor allosterically. potentiation, % (no concentration beside the values). AID 624464. P14416. 360,000 compounds, 0.23% hits. DiscoveRx D2 beta-arrestin cells, luminescence, 90 min; 100% = 57 uM dopamine signal; active = potentiation of 50% or more; inconclusive = 30% to 50%; inactive = 30% or less;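 note: compound concentration not given in the record; tested on top of an EC20 dose of dopamine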
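PathHunter beta-arrestin assay in DiscoveRx D2 cells. Compounds were added with an EC20 of dopamine (50 nM final) for 90 min at 37 deg C. Luminescence was read 1 h after detection reagent, with 57 uM dopamine as the EC100 control.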
TRPML1 agonist – activates the human TRPML1 channel | TRPML1-expressing cells, Ca2+ dye fluorescence, FDSS; host cell line not named in the record; reference of the full effect not given here | AID 624414 | 410,000 compounds, 0.12% hits | activation, % (test concentration not listed) | Q9GZU1; in the data active = activation above about 50%; inconclusive = about 30% to 50%; inactive = below about 30%; note: 0% is about no effect; the text of the record puts the active cut at 80%
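TRPML1-DL cells, Tet-induced overnight (~16 h, 37 degrees C), loaded 45-90 min at room temperature with Ca8 no-wash calcium dye plus quencher. FDSS fluorescence: 10 s baseline, compound pin-transfer, 110 s agonist read, then EC80 54-4 (4uM final) and 110 s antagonist read.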
Numbers without * were called inactive; & = joins results of further samples. Outcome played no part in choosing rows, and some 0.95% of all compounds hit somewhere here.

What do the screens show for `O=C1OCCC1Sc1nnnn1-c1ccc(Cl)cc1` (stereo unspecified)?
TRPML1 blocker: 12; CtBP-E1A blk: 2; Six1-Eya2 inh: -11; TRPV1 potentiator: -14; D2 potentiator: 8; TRPML1 agonist: -0.7

How did CC1CCCCN1C(=O)COC(=O)C1CCN(S(=O)(=O)c2ccc3c(c2)OCCO3)CC1 (stereo unspecified) do in these assays?
TRPML1 blocker: -13; CtBP-E1A blk: -3; Six1-Eya2 inh: -1; TRPV1 potentiator: 7; D2 potentiator: -14; TRPML1 agonist: -0.3

Results for COCCCN1C(=O)C(CC(=O)NCc2ccco2)CC(C(=O)N(C(C)C)C(C)C)=C1C (stereo unspecified) ?
TRPML1 blocker: -26; CtBP-E1A blk: 4; Six1-Eya2 inh: 0; D2 potentiator: -6; TRPML1 agonist: -0.5

Results for COc1ccccc1CNC(=O)CC12CC3CC(CC(Br)(C3)C1)C2 ?
TRPML1 blocker: -11; CtBP-E1A blk: 1; Six1-Eya2 inh: 5; TRPV1 potentiator: -9; D2 potentiator: -5; TRPML1 agonist: -0.1

What do the screens show for `Cc1ccccc1C(=O)Nc1ccc(S(=O)(=O)N2CC(C)OC(C)C2)cc1` (stereo unspecified)?
TRPML1 blocker: 1; CtBP-E1A blk: -2; Six1-Eya2 inh: -2; TRPV1 potentiator: 8; D2 potentiator: -5; TRPML1 agonist: 1.9

How did Cc1ccc(S(=O)(=O)N2[C@@H](c3ccccc3)C(C(=O)O)=CC[C@H]2c2cccc(C)c2)cc1 do in these assays?
TRPML1 blocker: -15; Six1-Eya2 inh: -8; TRPV1 potentiator: inconclusive; D2 potentiator: -12; TRPML1 agonist: 0.1

Results for Cc1cccc(C)c1NC(=O)C(c1ccccc1)N1CCC(Cc2ccccc2)CC1 (stereo unspecified) ?
CtBP-E1A blk: 2; Six1-Eya2 inh: -7; D2 potentiator: -7; TRPML1 agonist: -0.1

How did O=C(Nc1cccc2ncccc12)c1cc([N+](=O)[O-])ccc1Cl do in these assays?
TRPML1 blocker: 17; CtBP-E1A blk: 4; Six1-Eya2 inh: 4; TRPV1 potentiator: -4; D2 potentiator: 12; TRPML1 agonist: -0.7

What do the screens show for `Cc1noc(C)c1CSc1nc2ccccc2c(=O)n1-c1ccc(F)cc1F`?
TRPML1 blocker: 13; CtBP-E1A blk: 1; Six1-Eya2 inh: 3; TRPV1 potentiator: inconclusive; D2 potentiator: 0; TRPML1 agonist: 0.2

How did CC[C@]12c3[nH]c4cc(CCC(=O)N(C)C)ccc4c3CCN1C(=O)[C@@H](CC(=O)NC/C=C(\C)CCC=C(C)C)C[C@@H]2C(=O)N1CCN(C(=O)C2CC2)CC1 do in these assays?
TRPML1 blocker: -8; CtBP-E1A blk: -5; Six1-Eya2 inh: -2; TRPML1 agonist: -0.7

Three entries picked at random from those above, as already listed:
How did O=C(Nc1cccc2ncccc12)c1cc([N+](=O)[O-])ccc1Cl do in these assays?
TRPML1 blocker: 17; CtBP-E1A blk: 4; Six1-Eya2 inh: 4; TRPV1 potentiator: -4; D2 potentiator: 12; TRPML1 agonist: -0.7

What do the screens show for `O=C1OCCC1Sc1nnnn1-c1ccc(Cl)cc1` (stereo unspecified)?
TRPML1 blocker: 12; CtBP-E1A blk: 2; Six1-Eya2 inh: -11; TRPV1 potentiator: -14; D2 potentiator: 8; TRPML1 agonist: -0.7

What do the screens show for `Cc1noc(C)c1CSc1nc2ccccc2c(=O)n1-c1ccc(F)cc1F`?
TRPML1 blocker: 13; CtBP-E1A blk: 1; Six1-Eya2 inh: 3; TRPV1 potentiator: inconclusive; D2 potentiator: 0; TRPML1 agonist: 0.2

New compounds follow
How did Cc1c(NC(=O)c2cccc(NC(=O)Cc3ccccc3F)c2)c(=O)n(-c2ccccc2)n1C do in these assays?
TRPML1 blocker: -8; CtBP-E1A blk: -17; Six1-Eya2 inh: 1; TRPV1 potentiator: 1; D2 potentiator: -1; TRPML1 agonist: -0.3

What do the screens show for `Cc1cccc(C)c1NC(=O)Cn1c(=O)n(CCCC(=O)NCc2ccco2)c(=O)c2sccc21`?
TRPML1 blocker: -4; CtBP-E1A blk: -3; Six1-Eya2 inh: -3; TRPV1 potentiator: 0; D2 potentiator: 6; TRPML1 agonist: -0.3

What do the screens show for `O=C(c1ccc(Cl)s1)N(Cc1nnc(-c2ccccc2Cl)o1)C1CC1`?
TRPML1 blocker: 22; CtBP-E1A blk: -1; Six1-Eya2 inh: -1; TRPV1 potentiator: -9; D2 potentiator: 2; TRPML1 agonist: 0.1

What do the screens show for `COc1ccc(C(=O)NC(C)c2ccncc2)cc1S(=O)(=O)N(C)Cc1ccccc1` (stereo unspecified)?
TRPML1 blocker: -4; CtBP-E1A blk: 1; Six1-Eya2 inh: 5; TRPV1 potentiator: -17; D2 potentiator: -5; TRPML1 agonist: -0.3

Results for COc1cc(/C=N/NC(=O)CN(CCc2ccccc2)S(=O)(=O)c2ccc(NC(C)=O)cc2)cc(OC)c1OC ?
TRPML1 blocker: 36; CtBP-E1A blk: inconclusive; Six1-Eya2 inh: inconclusive; TRPV1 potentiator: 8; D2 potentiator: -2; TRPML1 agonist: 0.3

Results for O=[N+]([O-])c1cccnc1Oc1ccc(OCc2ccccc2)cc1 ?
TRPML1 blocker: -12; CtBP-E1A blk: -6; Six1-Eya2 inh: -10; TRPV1 potentiator: -1; D2 potentiator: -1; TRPML1 agonist: -0.2

Results for N#Cc1cccc(C#N)c1Oc1ccc(S(=O)(=O)Nc2ccccc2)cc1 ?
TRPML1 blocker: 42; CtBP-E1A blk: 8; Six1-Eya2 inh: 3; TRPV1 potentiator: 1; D2 potentiator: 3; TRPML1 agonist: -0.1

How did O=C(c1ccc(-c2ccc(Cl)cc2)o1)N1CCN(c2ccc([N+](=O)[O-])cc2Cl)CC1 do in these assays?
TRPML1 blocker: 30; CtBP-E1A blk: inconclusive; Six1-Eya2 inh: -19; TRPV1 potentiator: -1; D2 potentiator: -4; TRPML1 agonist: 0.4

What do the screens show for `CCOC(=O)Cn1c(C(C)=O)nc2ccccc21`?
TRPML1 blocker: -5; CtBP-E1A blk: 12; Six1-Eya2 inh: 8; TRPV1 potentiator: 1; D2 potentiator: -5; TRPML1 agonist: 0.2

How did CCN(CCCNC(=O)c1c(C)cc(=O)oc1C)c1cccc(C)c1 do in these assays?
TRPML1 blocker: 7; CtBP-E1A blk: -3; Six1-Eya2 inh: -14; TRPV1 potentiator: -22; D2 potentiator: -6; TRPML1 agonist: 0.2

How did CCOc1ccccc1CNC(=O)CCc1cn(C)c2ccccc12 do in these assays?
TRPML1 blocker: -2&2; CtBP-E1A blk: -3; Six1-Eya2 inh: -15; TRPV1 potentiator: 5; D2 potentiator: 2; TRPML1 agonist: 1.7&2.5

Results for Cc1ccc(NC(=S)N(CCN(C)C)Cc2cccs2)cc1C ?
TRPML1 blocker: 10; CtBP-E1A blk: -2; Six1-Eya2 inh: -8; TRPV1 potentiator: -12; D2 potentiator: -10; TRPML1 agonist: 0.5

What do the screens show for `O=C(Nc1ccc(Oc2ccccc2)cc1)c1csc([C@@H]2O[C@H](CO)[C@H](O)[C@H](O)[C@H]2O)n1`?
TRPML1 blocker: 9; CtBP-E1A blk: 1; Six1-Eya2 inh: 2; D2 potentiator: -34; TRPML1 agonist: 0.1

What do the screens show for `O=C(CCN1C(=O)C2CCCCC2C1=O)Nc1cc([N+](=O)[O-])ccc1Cl` (stereo unspecified)?
TRPML1 blocker: 8; CtBP-E1A blk: 4; Six1-Eya2 inh: 4; TRPV1 potentiator: 5; D2 potentiator: -2; TRPML1 agonist: 1.4

What do the screens show for `CN1OC[C@@H]2CN(S(=O)(=O)c3cccc4ccccc34)[C@H](c3ccc(N4CCCCC4)cc3)C[C@@H]21`?
CtBP-E1A blk: inconclusive; Six1-Eya2 inh: inconclusive; D2 potentiator: -11; TRPML1 agonist: -0.4

Results for CC(Oc1ccc2c(-c3ccccc3)cc(=O)oc2c1)C(=O)NCC(O)c1ccccc1 (stereo unspecified) ?
CtBP-E1A blk: 0; Six1-Eya2 inh: -1; TRPV1 potentiator: 2; D2 potentiator: -24

What do the screens show for `CC(C)C(NC(=O)c1ccccc1F)C(=O)NCc1ccccc1` (stereo unspecified)?
TRPML1 blocker: 6; CtBP-E1A blk: 5; Six1-Eya2 inh: 7; TRPV1 potentiator: -4; D2 potentiator: 3; TRPML1 agonist: -1.4

Results for Cc1sc2nc(SCCO)n(-c3ccccc3)c(=O)c2c1C ?
Six1-Eya2 inh: -1; TRPV1 potentiator: -13; D2 potentiator: 1

What do the screens show for `COc1ccc(CC(=O)Oc2cc(C)ccc2C)cc1`?
TRPML1 blocker: -2; CtBP-E1A blk: 49; Six1-Eya2 inh: 18; TRPV1 potentiator: -16; D2 potentiator: 0; TRPML1 agonist: 3.2

How did COc1ccccc1NC(=O)CN(C)S(=O)(=O)c1cccc2cccnc12 do in these assays?
TRPML1 blocker: 40&4; Six1-Eya2 inh: 0; TRPV1 potentiator: 26; D2 potentiator: -2; TRPML1 agonist: 0.7&-0.1

How did CCCCCCNC(=O)c1cc(S(=O)(=O)N2CCc3ccccc32)ccc1F do in these assays?
CtBP-E1A blk: 2; Six1-Eya2 inh: -1; TRPV1 potentiator: -9; D2 potentiator: -5

What do the screens show for `Cc1ccc(NC(=O)CSc2nnc(-c3cc(C)[nH]n3)n2N)c(C)c1`?
TRPML1 blocker: -11; CtBP-E1A blk: -4; Six1-Eya2 inh: 3; TRPV1 potentiator: inconclusive; D2 potentiator: -5; TRPML1 agonist: -1.1

Results for O=C(NN1CCOCC1)c1ccc(Br)s1 ?
TRPML1 blocker: 13; CtBP-E1A blk: 5; Six1-Eya2 inh: 5; TRPV1 potentiator: -16; D2 potentiator: -18; TRPML1 agonist: -0.7

What do the screens show for `Cn1c(=O)[nH]c(=O)c2[nH]c(N(Cc3ccccc3)Cc3ccccc3)nc21`?
TRPML1 blocker: -1; CtBP-E1A blk: -11; Six1-Eya2 inh: -12; TRPV1 potentiator: 3; D2 potentiator: 13; TRPML1 agonist: 1.6

How did COc1ccc(CNC(=O)C2CCN(S(=O)(=O)c3ccc4c(c3)C(C)(C)C(=O)N4C)CC2)cc1 do in these assays?
TRPML1 blocker: 3; CtBP-E1A blk: 2; Six1-Eya2 inh: 9; TRPV1 potentiator: 19; D2 potentiator: 8; TRPML1 agonist: -0.5

What do the screens show for `C[C@H](CO)N1C[C@H](C)[C@@H](CN(C)Cc2ccc3c(c2)OCO3)Oc2ccc(NS(C)(=O)=O)cc2C1=O`?
TRPML1 blocker: -9; CtBP-E1A blk: 5; Six1-Eya2 inh: 0; D2 potentiator: -7; TRPML1 agonist: -0.1

How did NC(=O)NC(=O)COC(=O)c1ccc(OC(F)(F)F)cc1 do in these assays?
TRPML1 blocker: -4; CtBP-E1A blk: 0; Six1-Eya2 inh: 2; TRPV1 potentiator: 2; D2 potentiator: -3; TRPML1 agonist: 0.6

Screening results as filed in PubChem BioAssay.
